Assay outcomes from PubChem.
2A StopGo – FMDV 2A StopGo reporter, luciferase signal; human cells with a luciferase reporter of 2A StopGo recoding; control for the full effect not named in the record; Potency, µM (highest dose often 57.9 µM), without a hit: at the highest dose signal change, negative = less light; 410,000 compounds, 1.2% hits; active = well fitted falling curve with a large enough effect; inconclusive = small, poorly fitted or top-dose-only effect; inactive = no such curve, though single readings can be large or run the other way; tested in HEK293T cells; note: % is set by controls: 0 for no effect and ±100 for the full control effect; nearly all actives have a fitted effect of over 45% in size; luciferase light after 4 h
SARS PLpro yeast – SARS-CoV PLP inhibition in yeast; S. cerevisiae expressing SARS-CoV PLpro, growth rescue; control for the full effect not named in the record; 330,000 compounds, 0.19% hits; Potency, µM (series often up to 32.9 µM), without a hit: at the highest dose activity, positive = growth rescue; active means well fitted rising curve with a large enough effect; inconclusive means small, poorly fitted or top-dose-only effect; inactive means no such curve, though single readings can be large or run the other way; note: 0% is about no effect; nearly all actives have a fitted effect of over 55% in size; growth read by luminescence after 48 h
RE007 growth inh – less growth of the S. pombe RE007 Vpr strain; S. pombe RE007 Vpr strain, BacTiter-Glo ATP luminescence, 24 h; control for the full effect not named in the record; Potency, µM (series often up to 92.2 µM), for inactives: top-dose activity change, negative = less growth; 360,000 compounds, 0.21% hits; AID 651644; active = well fitted falling curve with a large enough effect; inconclusive = small, poorly fitted or top-dose-only effect; inactive = no such curve, though single readings can be large or run the other way;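 note: % is set by controls: 0 for no effect and ±100 for the full control effect; nearly all actives have a fitted effect of over 50% in size; the assay follows cell death caused by Vpr and the record does not say whether a fall means rescue or toxicity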
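Fission yeast strain RE007, carrying one chromosomally integrated HIV-1 vpr copy, was seeded at OD 0.01 in PMG+AL medium with 23 nL pinned compound. After 24 h at 30 °C and 99% humidity, viability was read by BacTiter-Glo luminescence.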
Marburg entry inh – blocks Marburg virus binding to or entry into cells; Marburg virus pseudotyped entry inhibition, cell reporter; control for the full effect not named in the record; about a third of the inactives were read at about 46 µM; Potency, µM (doses to about 37.8 µM), without a hit: top-dose activity change, negative = inhibition, hits mostly inhibitors; 300,000 compounds, 1.8% hits; active = well fitted inhibition curve with a large enough effect; inconclusive = small, poorly fitted or top-dose-only effect, or effect the other way; inactive = flat fitted curve, though single readings scatter; tested in HEK293 cells; about a fifth of its hits are not listed in these tables; note: % is set by controls: 0 for no effect and ±100 for the full control effect; luciferase read-out
LASV entry inh – inhibitors of Lassa virus binding or cell entry; Lassa virus pseudotype entry inhibition, cell reporter; control for the full effect not named in the record; Potency, µM (highest dose often 37.9 µM), inactives show at the top dose activity change, negative = inhibition, usual class: inhibitors; 300,000 compounds, 1.2% hits; AID 540256; active means well fitted inhibition curve with a large enough effect; inconclusive means small, poorly fitted or top-dose-only effect, or effect the other way; inactive means flat fitted curve, though single readings scatter; tested in HEK293 cells; note: % is set by controls: 0 for no effect and ±100 for the full control effect; nearly all actives have a fitted effect of over 50% in size; luciferase read-out
Cruzain Triton – inhibitors of Trypanosoma cruzi cruzain with detergent; P25779; purified cruzain, Z-FR-AMC fluorescence, 0.01% Triton; Potency, µM, for the others: max response, negative = inhibition, actives largely listed as inhibitors; 200,000 compounds, 0.43% hits; AID 1478;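 note: plate controls were neutral wells for no effect and buffer without enzyme for full effect; nearly all actives have a fitted effect of over 40% in size; top concentration of the series not given in the record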
Target sequence (P25779 123-467 limits assumed): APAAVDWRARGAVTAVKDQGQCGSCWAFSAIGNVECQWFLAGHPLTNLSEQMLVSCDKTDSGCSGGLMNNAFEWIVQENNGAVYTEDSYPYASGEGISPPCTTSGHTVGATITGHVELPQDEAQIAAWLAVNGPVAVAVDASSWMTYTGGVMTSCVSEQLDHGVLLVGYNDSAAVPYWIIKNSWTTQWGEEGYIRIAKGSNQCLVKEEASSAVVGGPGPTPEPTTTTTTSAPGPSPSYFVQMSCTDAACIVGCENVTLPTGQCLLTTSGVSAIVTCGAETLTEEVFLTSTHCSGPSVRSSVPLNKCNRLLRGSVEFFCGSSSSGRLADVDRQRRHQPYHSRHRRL
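Read-out: AMC fluorescence (360 nm excitation, 450 nm emission), four reads over 2 min, first-to-third difference used. Conditions: cruzain 1.5 nM, Z-FR-AMC 2 uM, pH 5.5 acetate, 5 mM DTT, 0.01% Triton X-100.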
NS1 inh – blocks influenza NS1 protein function; S. cerevisiae slowed by influenza A NS1, growth recovery by OD600; Potency, µM (top dose mostly 46.1 µM), without a hit: at the highest dose activity, positive = more growth; 270,000 compounds, 0.4% hits; AID 2326; active means well fitted rising curve with a large enough effect; inconclusive means small, poorly fitted or top-dose-only effect; inactive means no such curve, though single readings can be large or run the other way; note: nearly all actives have a fitted effect of over 50% in size
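A cell-based growth assay was used: compounds that relieve NS1-induced slow growth of budding yeast raise OD600. Assay medium was yeast nitrogen base with ammonium sulphate and -URA supplement, pH 6.0, with 2% galactose.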
Cruzain inh noDet – blocks cruzain activity in detergent-free assay. 200,000 compounds, 2.3% hits. Potency, µM, for the others: max response, negative = inhibition, most hits filed as inhibitors. P25779. purified cruzain, Z-FR-AMC fluorescence, no detergent. AID 1476;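 note: plate controls were enzyme without inhibitor for no effect and buffer without enzyme for full effect; nearly all actives have a fitted effect of over 40% in size; top concentration of the series not given in the record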
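Purified cruzain at 1.5 nM, pre-incubated 15 min with compound at room temperature in 100 mM sodium acetate pH 5.5, 5 mM DTT, 0.00005% Triton X-100. Reaction started with 2 uM Z-FR-AMC; AMC fluorescence increase over 60 s gives rate.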
* hit, by the source's call; ? = inconclusive; / = no result given; & = joins results of further samples; [ ] = remark or other dose. Unless noted, calls come from the whole dose curve; as a rule, active = well fitted curve in the direction sought with a large enough effect; inconclusive = small, poorly fitted or top-dose-only effect, or another doubt; inactive = no such curve, though single readings can be large; an effect the other way counts as inactive or inconclusive. Potency is the fitted concentration of half-maximal effect. Rows are unselected; about 4.5% have a hit in one of these screens.

SMILES	2A StopGo	SARS PLpro yeast	RE007 growth inh	Marburg entry inh	LASV entry inh	Cruzain Triton	NS1 inh	Cruzain inh noDet
CCOC(=O)C1CCN(c2ccc(C(=O)O)cc2[N+](=O)[O-])CC1	-16.6%	-5.8%	0.3%	-1.6%	18.2%	-2.8%	5.4%	-17.4%
O=c1cc(CN2CCN(c3cccc(Cl)c3)CC2)c2cc3c(cc2o1)CCCC3	0.0%	?	-2.7%	-28.7%	-18.8%	1.9%	0.8%	12.6µM*
CC(C)c1nc2c([nH]1)c(=O)n(C)c(=O)n2C	-0.6%	2.2%	-3.5%	/	/	/	6.1%	/
C1=CCC(CN2CCNCC2)CC1 (stereo not given)	-10.4%	1.2%	3.1%	9.1%[46.1 µM]	9.1%[46.1 µM]	/	4.3%	/
Cc1cc(OCCn2cc(C(=O)c3cccs3)c3ccccc32)ccc1Cl	-16.3%	/	/	?	?	-1.9%	/	-11.6%
O=C(Cc1cccs1)N/N=C/c1ccco1	-0.2%	17.7%	4.1%	12.5%	11.2%	-1.4%	1.5%	-1.9%
CCC(=O)c1ccc(N2CCC(C)CC2)c(F)c1	31.8%[activator]	4.2%	12.9%	-16.4%[46.1 µM]	22.1%	/	1.5%	/
Cc1ccc(-c2noc(-c3cccnc3NCc3ccc(Cl)cc3)n2)cc1	63.8%[activator]	/	/	24.7%[46.1 µM]	-1.9%[46.1 µM]	-1.0%	/	-3.2%
COC(=O)c1ccc(NC(=O)CS(=O)(=O)c2ccccc2)cc1	54.2%[activator]	?	-2.3%	/	/	/	-10.1%	/
CC1CCN(c2nc3ccc(C(=O)N4CCN(c5ccccc5)CC4)cc3s2)CC1	-2.9%	/	/	14.5%[46.1 µM]	?	-3.5%	/	-2.7%
CCc1nc2nc(C)cc(Nc3ccc(OC)cc3OC)n2n1	0.0%	/	/	?	2.8%[46.1 µM]	-1.3%	/	3.8%
Cc1ccc(-n2c3c(cc(C(=O)NCc4ccco4)c2=O)C(=O)CCC3)cc1	4.7%	-0.4%	5.9%	/	/	/	-0.9%	/
Cc1ccc(Nc2nc(C)cc(C)n2)c(Br)c1	23.4%	-0.7%	?	-0.6%	0.2%	-0.5%	-14.2%	-15.1%
Cc1ccc(CNC(=O)CCS(=O)(=O)c2ccc(Br)s2)o1	1.5%	-6.2%	-29.6%	?	10.9%	-0.4%	-1.8%	-6.6%
NC(=S)N/N=C\c1c2ccccc2cc2ccccc12	0.0%	14.1µM*	-4.7%	?	13.4%	0.891µM*	8.1%	1µM*
Cc1ccc(S(=O)(=O)Nc2c(C)nc3nc(C)[nH]n3c2=O)c(C)c1	-7.1%&-4.1%	-0.3%	10.3%	0.8%&-16.7%[46.1 µM]	1.3%	2.2%	3.0%	14.3%
CCOc1ccc(C2C(C(=O)c3cccs3)=C(O)C(=O)N2CCCn2ccnc2)cc1 (stereo not given)	9.1%	-11.2%	17.8%	17.1%[46.1 µM]	15.7%	1.2%	1.2%	0.8%
O=C(/C=C/c1ccc2c(c1)OCO2)Nc1nc(-c2ccc(F)cc2)cs1	/	8.8%	/	-2.0%	-0.5%	-5.2%	15.1%	?
CCN1CCN(C(=O)C2=C(C(=O)O)CCCC2)CC1	0.2%	-9.2%	-0.3%	7.5%	-15.1%	7.6%	-2.8%	-0.8%
C=CCOC(=O)C1=C(C)N=C2SCCC(=O)N2C1/C=C/c1ccccc1OC (stereo not given)	-27.8%	-4.0%	4.9%	-18.2%	-17.1%	/	/	/
CCOc1ccc(NC(=O)CN(C)C(=O)c2c(-c3c(F)cccc3Cl)noc2C)cc1OCC	-19.3%	2.0%	10.2%	1.8%[46.1 µM]	-14.6%	/	/	/
CCOC(=O)c1c(NC(=O)c2ccccc2Br)sc2c1CCc1ccccc1-2	-12.0%	-5.0%	-15.3%	?	-27.7%	-5.7%	8.9%	15.8µM*
COc1cc(N2C(=O)NC3CC2(C)Oc2ccccc23)cc(OC)c1OC (stereo not given)	-11.5%	1.8%	11.7%	7.0%[46.1 µM]	11.7%	1.6%	-7.1%	12.9%
O=C(N1CCOCC1)n1nnc2ccccc21	-15.4%	-9.9%	-5.9%	?	-31.9%	7.4%	-0.1%	0.9%
CCOC(=O)N1CCN(S(=O)(=O)c2cc(Cl)c(OC)cc2Cl)CC1	-7.8%	2.9%	21.3%	-10.8%[46.1 µM]	-15.7%	-3.4%	-30.9%	23.2%

An excerpt of these results, with two lines to a compound.
Each structure is followed by: 2A StopGo, SARS PLpro yeast, RE007 growth inh, Marburg entry inh, LASV entry inh, Cruzain Triton, NS1 inh, Cruzain inh noDet
- Cc1ccc(CNC(=O)CCS(=O)(=O)c2ccc(Br)s2)o1
  1.5%, -6.2%, -29.6%, ?, 10.9%, -0.4%, -1.8%, -6.6%
- CCOC(=O)C1CCN(c2ccc(C(=O)O)cc2[N+](=O)[O-])CC1
  -16.6%, -5.8%, 0.3%, -1.6%, 18.2%, -2.8%, 5.4%, -17.4%

Continued:
SMILES	2A StopGo	SARS PLpro yeast	RE007 growth inh	Marburg entry inh	LASV entry inh	Cruzain Triton	NS1 inh	Cruzain inh noDet
Cc1cccc(C(=O)C2CCOC(C)(C)C2)c1 (stereo not given)	-1.0%	-0.2%	4.4%	/	/	/	-2.3%	/
O=C(Nc1nnc(C2CCCCC2)s1)c1ccc(Br)s1	66.9%[activator]	-1.4%	-7.2%	?	22.3%	-1.9%	1.2%	25.1µM*
CCCCCCCCCCCC(=O)NC(C(=O)OCC)C(O)c1cccc([N+](=O)[O-])c1 (stereo not given)	?	1.4%	1.1%	11.2µM*	?	-5.9%	11.0%	?
O=C(O)c1cc2n(n1)CCN(Cc1ccccc1Cl)C2=O	4.6%	-2.8%	23.4%	19.4%[46.1 µM]	-7.7%	/	/	/
COc1cccc(CNC(=O)C(Cc2ccccc2)NS(=O)(=O)c2ccc3c(c2)oc(=O)n3C)c1 (stereo not given)	-5.7%	/	/	15.8%[46.1 µM]	1.2%[46.1 µM]	-0.6%	/	-7.3%
COc1cc(NC(=O)c2cc3c(Cl)nc4ccccc4c3s2)cc(OC)c1OC	?	28.6%	16.7%	-23.1%	-23.5%	-4.6%	12.3%	24.1%
CCOc1c(Br)cc(CNC2CCCCCCC2)cc1OC	?	0.1%	17.1%	/	/	/	-5.5%	/
Cc1cccc(CNC(=O)c2ccc3c(c2)c(C)c(C)n3Cc2ccccc2)c1	10.5%	/	/	/	?	1.8%	/	?
O=C(CN1C(=O)CSc2ccc(S(=O)(=O)N3CCCC3)cc21)Nc1cccc(Cl)c1	-17.2%	/	/	/	-1.9%[46.1 µM]	-7.3%	/	6.4%
CC(=O)c1ccc(N2CCN(C(=O)c3nn(Cc4ccccc4)c(=O)c4ccccc34)CC2)cc1	-3.7%	-2.9%	-17.4%	?	10µM*	/	/	/
CCCCN(C(=O)C1CCCO1)c1c(N)n(CCC)c(=O)[nH]c1=O (stereo not given)	-16.5%	8.6%	-6.3%	-1.7%	-24.6%	/	/	/
O=C(Cn1nnc(-c2ccc([N+](=O)[O-])cc2)n1)NNC(=O)c1ccccc1	13.1%	-1.6%	-14.4%	-22.0%[46.1 µM]	?	/	-9.3%	/
Cc1ccc2[nH]cc(C(=O)CN3CCOCC3)c2c1	14.4%	-8.4%	-5.5%	-1.9%	-5.7%	-20.8%	14.9%	4.3%
Cc1ccc(C(=O)NCCc2ccncc2)cc1	76.9%[activator]	-2.1%	-1.2%	6.0%	8.8%	5.5%	-9.2%	-10.7%
CCOC(=O)c1nn(-c2ccc(Cl)cc2)c2nc(-c3ccc(C)cc3)c(C#N)c(=O)n12	-16.5%	5.2%	8.1%	-19.6%	?	-2.7%	10.8%	?
COc1ccc(C2=CC(c3ccc(F)cc3)n3nnnc3N2)cc1 (stereo not given)	/	3.9%	-6.5%	5.3%	-1.0%	-15.4%	-7.5%	-1.4%
COc1cc(CN(CC(C)C)S(=O)(=O)c2ccccc2Br)cc(OC)c1	-19.5%	-24.1%	11.5%	/	?	/	/	/
CCCCN1CNC(=S)N(Cc2ccccc2)C1	-16.8%	?	18.3%	28.3%	-13.3%	-1.5%	5.4%	-4.1%
O=c1[nH]c2ccc(NS(=O)(=O)c3ccc(Cl)cc3)cc2[nH]1	-1.1%	-0.9%	-8.2%	-14.0%[46.1 µM]	4.4%[46.1 µM]	/	/	/
Cc1cc(NC(=O)CSc2nnc(-c3ccco3)o2)no1	6.9%	/	-5.8%	4.8%	9.3%	-2.7%	-1.2%	-1.1%
O=C1c2ccccc2C(=O)N1CC(O)COc1ccc(Br)cc1 (stereo not given)	0.6%	-5.4%	-15.7%	20.2%[46.1 µM]	4.9%[46.1 µM]	/	-8.3%	/
CC(C)(C)NCc1cc(Br)ccc1OCc1cccs1	?	8.8%	-1.0%	?	-29.6%	1.1%	-11.9%	10.8%
COc1ccc(OC)c(S(=O)(=O)n2c([N+](=O)[O-])cnc2C)c1	-4.6%	-1.4%	-12.5%	2.5%	1.1%	/	14.9%	/
CCc1ccc(CNC(=O)C2CCN(S(=O)(=O)N3CC(C)CC(C)C3)CC2)cc1 (stereo not given)	?	21.7%	11.4%	/	/	/	-0.4%	/
CC(=O)Nc1ncc(Sc2ccc([N+](=O)[O-])cc2)s1	-9.3%	/	21.9%	?	-15.7%	/	/	/
CCOc1ccc(NC(=O)Nc2ccc3c(c2)CCC3)cc1	14.0%	2.1%	-8.2%	?	0.4%[46.1 µM]	/	3.2%	/
C=CCN(c1ccccc1)S(=O)(=O)c1cccc(C(=O)Oc2ccc3c(C)cc(=O)oc3c2)c1	-9.3%	2.1%	-0.7%	16.4%	4.2%	-1.5%	?	-24.6%
C[C@@H]1CC=C[C@H]2[C@H]1C(=O)N(Cc1ccccc1)[C@H]2c1ccc(/C=C/c2ccccc2)cc1F	-27.9%	-6.4%	-14.0%	/	/	/	20.8%	/
CCOC(=O)CCCC(=O)N1CCOCCOCCN(C(=O)CCCC(=O)OCC)CCOCCOCC1	-13.9%	0.7%	-16.3%	/	/	/	-4.2%	/
CCCC(=O)NCCCc1nc2ccccc2n1C	-11.5%	6.1%	-6.9%	/	/	-1.9%	-7.1%	-10.8%
